Screening results: PubChem, ICCB-Longwood Screening Facility, Harvard Medical School
HCMV UL50-53 inh: cytomegalovirus nuclear egress complex inhibition. inhibition, % (test concentration not listed). hit rate 0.15% among 190,000. HTRF UL50-UL53 interaction, normalized percent inhibition;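 active = both replicates at 50% or more, plus weaker picks with an unusually low signal ratio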;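 note: stock transfer was 100 nL into about 20 µL; 0% = negative control wells and 100% = wells with untagged competitor protein; inactives centre near -12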
GIV-Gai inh: blocks GIV peptide binding to rat Galpha-i3 | P08753 | Galpha-i3/FITC-GIV peptide fluorescence polarization, 90 min; hits give low values; scaled: aluminum fluoride 0%, vehicle 100% | percent of control (FP), % (no concentration beside the values) | hit rate 0.42% among 210,000 | AID 1224905;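 active = replicate mean at 85% of control or lower, very high polarization wells dropped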;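 note: wells of about 15 µL received 100 nL stock; the first replicate is given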
Target sequence (P08753 whole entry, looked up): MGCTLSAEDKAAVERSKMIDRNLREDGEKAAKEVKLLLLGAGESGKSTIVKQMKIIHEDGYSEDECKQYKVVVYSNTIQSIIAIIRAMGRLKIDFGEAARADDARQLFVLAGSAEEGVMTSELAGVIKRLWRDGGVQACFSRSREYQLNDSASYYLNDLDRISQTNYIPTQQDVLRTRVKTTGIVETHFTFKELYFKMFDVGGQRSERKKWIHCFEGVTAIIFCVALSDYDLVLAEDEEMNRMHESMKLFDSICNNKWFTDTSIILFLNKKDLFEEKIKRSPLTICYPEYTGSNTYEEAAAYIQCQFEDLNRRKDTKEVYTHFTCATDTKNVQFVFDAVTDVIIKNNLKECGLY
Sa growth inh: S. aureus growth inhibition. hit rate 0.53% among 170,000. AID 720641. S. aureus RN4220 growth, OD600, 20 h, 42 °C; hits give low values. relative growth, % (test concentration not listed);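 active = growth at 42 °C up to 50% and 20 or more points under that at 30 °C, or under 10% at both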;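 note: 300 nL library stock went into each well; scaled to the means of positive and negative controls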
Sa growth inh second temp: second read-out of Sa growth inh, no call of its own (marks repeat the call); relative growth, %; measured here: growth at 30 °C;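 optical density after 20 h as mean of two plates; 100% = untreated growth and lower means inhibition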
* marks the source's active call; other numbers are inactive results; . = not tested or not shown; & = joins results of further samples.

SMILES	HCMV UL50-53 inh	GIV-Gai inh	Sa growth inh	Sa growth inh second temp
Cc1ccc(O)c(C(=O)c2coc(=N)c(C(=O)NC(C)C)c2)c1	-12	.	164	103
CCN(CC)S(=O)(=O)c1ccc2c(c1)nnn2CCC(=O)N1CCN(c2ccccn2)CC1	2	102	.	.
COCCNC(=O)CSc1nc(-c2ccccc2)[nH]c1-c1ccccc1	-21	100	.	.
COC(=O)N/N=C1\CC2CCC1(C)C2(C)C (stereo unspecified)	-20	98	97	93
COc1ccc(C2=[N+]([O-])C(C)(C)N(O)C2C)cc1 (stereo unspecified)	-6	.	106	99
O=C(NC1CCCCC1)N(Cc1nc2ccccc2c(=O)[nH]1)C1CCCC1	-4	108	93	82
Cc1csc(NC(=O)COCC(=O)O)c1-c1nc2ccccc2s1	-18	104	105	95
Cc1onc(-c2c(F)cccc2Cl)c1C1=NCCO1	0	98	94	88
CCCOc1ccc(C(=O)Nc2cccc(NC(=O)c3ccc(Cl)cc3Cl)c2)cc1	-40	103	94	83
COc1ccc(-c2cc(C(F)(F)F)c(C#N)c(SCCCn3c(=O)[nH]c4ccccc43)n2)cc1	.	99	92	79
Cc1cc(C)c(S(=O)(=O)N(C)CCc2noc(COc3ccc(Cl)cc3)n2)c(C)c1	-7	102	.	.
CCOC(=O)c1c(C)n(-c2ccccc2)c2ccc(OC(=O)c3cccc(OC)c3OC)cc12	-18	96	99	91
CCn1cc(SCC(=O)NCc2ccc3c(c2)OCO3)c2ccccc21	17	106	95	59
Cc1ccc(NS(=O)(=O)c2ccc(NC(=O)CCC(=O)O)cc2)cc1C	-3	.	81	94
CC1CC(C)CN(C(=O)c2ccc(N3CC4CC(C3)c3cccc(=O)n3C4)c(NC(=O)c3ccc(F)cc3)c2)C1 (stereo unspecified)	-23	103	94	76

6 compounds from above, ordered by the number in GIV-Gai inh, low to high.
molecule,GIV-Gai inh,Sa growth inh second temp
CCOC(=O)c1c(C)n(-c2ccccc2)c2ccc(OC(=O)c3cccc(OC)c3OC)cc12,96,91
COC(=O)N/N=C1\CC2CCC1(C)C2(C)C (stereo unspecified),98,93
COCCNC(=O)CSc1nc(-c2ccccc2)[nH]c1-c1ccccc1,100,.
Cc1cc(C)c(S(=O)(=O)N(C)CCc2noc(COc3ccc(Cl)cc3)n2)c(C)c1,102,.
CCCOc1ccc(C(=O)Nc2cccc(NC(=O)c3ccc(Cl)cc3Cl)c2)cc1,103,83
Cc1csc(NC(=O)COCC(=O)O)c1-c1nc2ccccc2s1,104,95

Of the compounds above, these contain an aryl methoxy group:
SMILES	HCMV UL50-53 inh	GIV-Gai inh	Sa growth inh	Sa growth inh second temp
COc1ccc(C2=[N+]([O-])C(C)(C)N(O)C2C)cc1 (stereo unspecified)	-6	.	106	99
COc1ccc(-c2cc(C(F)(F)F)c(C#N)c(SCCCn3c(=O)[nH]c4ccccc43)n2)cc1	.	99	92	79
CCOC(=O)c1c(C)n(-c2ccccc2)c2ccc(OC(=O)c3cccc(OC)c3OC)cc12	-18	96	99	91

(further entries)
SMILES	HCMV UL50-53 inh	GIV-Gai inh	Sa growth inh	Sa growth inh second temp
Cc1ccc(C)c(OCC(=O)Nc2sc3c(c2C#N)CCCC3)c1C	-26	99	97	88
Cc1nn(-c2ccccc2)c2sc(C(=O)Nc3ccc(Cl)cc3Cl)cc12	-28	108	101	94
O=C1CCSc2ccc(S(=O)(=O)Nc3cccc(C(F)(F)F)c3)cc2N1	.	107	121	79
CC1=C(C(=O)Nc2ccccc2)C(c2cccnc2)n2nnnc2N1 (stereo unspecified)	4	108	.	.
CCCCS(=O)(=O)c1oc(-c2cccs2)nc1S(=O)(=O)c1ccccc1	-11	109	91	72
O=C(Nc1ccc2nc(N3CCN(c4ccccc4)CC3)cc(C(=O)O)c2c1)c1ccccc1Cl	-48	105	.	.
CCC(=O)Nc1nnc(-c2cccc(OC)c2)o1	-4	101	0.6*	0.8*
Cn1c(=O)c2c(nc(N3CCOCC3)n2CC(O)COc2ccc(Cl)cc2)n(C)c1=O (stereo unspecified)	-6	105	.	.
CC(=O)n1c2ccccc2c2nc(-c3ccncc3)sc21	.	123	120	97
O=C(CCN1CCCCC1)N1N=C(c2ccc(Cl)cc2)CC1c1ccco1 (stereo unspecified)	-8	103	94	97
O=C(COc1ccc2c(c1)CCC2)N1CCC2(CC1)OCCO2	-3	106	122	105
Cc1ccc2nc(N3CCN(c4cccc(C)c4C)CC3)c3nncn3c2c1	0	103	112	100
Cc1c(CNC2CCCCC2)c(C(=O)O)c(C)n1Cc1cccc(Cl)c1	8	105	91	97
CCSc1nnc(SCC(=O)c2cc(C)n(C)c2C)s1	-10	.	122	99
CC1(C)OC(=O)C(=C2SCCCS2)C(=O)O1	-26	106	87	81
C=CCn1nnc(NCc2ccc(-c3ccc(Br)cc3Br)o2)n1	-12	98	.	.
CN(C)C(=O)c1ccc2c(c1)N(CC(=O)NC1CCCCC1)C(=O)CO2	-23	97	.	.
CC(NC(=O)C1(c2cccs2)CCOCC1)c1ccccc1 (stereo unspecified)	.	100	106	87
Cc1ccc2c(c1)c(-n1cccc1)c1n2CC(C)(C(=O)NC2CCCCC2)N(CC2CCCO2)C1=O (stereo unspecified)	-6	102	.	.
Cc1cc(C)c(NC(=O)C(C)Sc2nc3ncccc3[nH]2)c(C)c1 (stereo unspecified)	-2	101	.	.
NC(=O)c1ccsc1NC(=O)c1cccs1	3	122	82	46
Cc1ccc(N(Cc2cccs2)C(=O)c2ccc(Br)o2)cc1	-21	100	92	83
O=C(Nc1nsc(-c2ccccc2)n1)c1ccc2ncsc2c1	-21	103	99	54
O=C(Nc1ccc(Oc2ccc(NC(=O)c3cnccn3)cc2)cc1)c1cnccn1	-10	92	96	88
NC(=O)CSc1nnc2c(n1)CCCC2	-14	99	115	73
COc1ccccc1CNC(=O)C1CCC(CNS(=O)(=O)c2ccc3c(c2)CCCC(=O)N3)CC1 (stereo unspecified)	.	99	104	87
CCCC(=O)Nc1cccc(-c2ccc(S(=O)(=O)CC)nn2)c1	-26	100	.	.
COc1cc(C(=O)OCC(=O)c2cc3c4c(c2)CC(=O)N4CCC3)ccc1OC(F)F	-12	.	98	89
O=C(Nc1c(-c2ccc(F)cc2)nc2ccccn12)c1cccc(Cl)c1	7	107	.	.
Cc1ccc(-c2nc3sc(C)c(C)c3c(=O)o2)cc1	-24	98	.	.

Single records, from the list above. Values in the order: HCMV UL50-53 inh	GIV-Gai inh	Sa growth inh	Sa growth inh second temp
O=C(Nc1ccc(Oc2ccc(NC(=O)c3cnccn3)cc2)cc1)c1cnccn1 in the list: -10	92	96	88
Cc1ccc2c(c1)c(-n1cccc1)c1n2CC(C)(C(=O)NC2CCCCC2)N(CC2CCCO2)C1=O (stereo unspecified) in the list: -6	102	.	.

Additional compounds follow:
SMILES	HCMV UL50-53 inh	GIV-Gai inh	Sa growth inh	Sa growth inh second temp
CN(C)c1ccc(-c2nc3ccccc3c(=O)[nH]2)c(Cl)c1	-18	95	83	81
Cc1ccc(CNC(=O)c2ccc3c(O)c(S(=O)(=O)c4ccccc4)c(=O)[nH]c3c2)cc1	.	99	120	80
NC(=O)CSc1nc2ccccc2n1S(=O)(=O)c1ccccc1	-18	103	96	85
COc1ccc(-c2ccc(CCC(=O)O)n2CC(=O)Nc2cccc(C(F)(F)F)c2)cc1	-12	106	85	83
Cc1cccc(NC(=O)C2CCN(c3cnc4ccccc4n3)CC2)c1C	-14	94	.	.
O=C(CCCOc1ccccc1)OCc1cc(=O)oc2cc(O)ccc12	-19	.	80	89
COCCn1c(SCc2csc(-c3cc(Br)ccc3OC)n2)nc2ccccc21	-20	.	85	89
CCNc1ccc(-c2nc(-c3ccncc3)no2)cc1[N+](=O)[O-]	-30	98	91	97
Cc1nonc1NC(=O)C(C)Oc1ccc(F)cc1 (stereo unspecified)	-8	99	97	78
COc1ccc(-c2nnc(SCC(=O)OC(C)C)o2)cc1	-10	96	93	91
CC1CS(=O)(=O)N(c2ccc(C(=O)NC3=NCCS3)cc2)C1=O (stereo unspecified)	-15	101	.	.
Cc1noc(C)c1COc1ccc(CC(=O)Nc2ccc3c(c2)OCO3)cc1	-34	.	91	92
COc1ccc(CN2CN=C(Nc3nc4ccccc4o3)NC2)cc1	-39	110	83	90
O=C1CCCC2=C1Sc1ccccc1N2	-104	136	101	65
N#Cc1ccc(-c2nc3ccccc3c(=O)[nH]2)cc1	.	99	100	84
O=C(c1ccc(Cl)nc1)N1CCC(Cc2ccccc2)CC1	-17	.	77	91
CCOc1ccc(N(CC)S(=O)(=O)N2CCCC(C(=O)NCc3ccc(SC)cc3)C2)cc1 (stereo unspecified)	.	105	99	66
CC(CNS(=O)(=O)c1ccccc1)Sc1ncccn1 (stereo unspecified)	-29	.	98	86
Oc1ccc2ccccc2c1C=Nc1cccn2cc(-c3ccccc3)nc12	.	-9.9*	100	85
Cn1c(N)nc(O)c1/C=C1/C=Nc2ccccc21	-64	111	95	71
COc1cc(CN(C(=O)COc2ccc(Cl)cc2)c2ccccn2)cc(OC)c1OC	3	109	98	89
CCn1nnc2cc(C(=O)Nc3ccc(Br)cc3F)ccc21	.	108	102	93
Cc1nc2ncccn2c1-c1csc(NCc2ccco2)n1	-31	102	104	77
C/C(=N\NC(=O)c1ccc(N2CCCC2=O)cc1)c1ccccc1	-23	99	102	82
O=C(Nc1ccc(S(=O)(=O)N2CCCCC2c2cccnc2)cc1)c1ccc(F)cc1 (stereo unspecified)	.	106	100	59
CCS(=O)(=O)c1ccc2oc(SCC(=O)NC34CC5CC(CC(C5)C3)C4)nc2c1	-12	.	93	91
NC(=O)CSc1nnc(SCc2ccc(Cl)cc2)s1	-4	103	107	96
CN1CCC(=NNC(=O)COc2ccc(Cl)cc2)CC1	-18	99	95	89
CCSc1nc2ccccc2n1CC(=O)O	.	97	80	87
CC12CCC(C(C)(C)O)C(CC(=O)O1)C2 (stereo unspecified)	-8	100	102	88
CC(C)OCCCn1c(=O)c2ccccc2n2c(=O)[nH]nc12	-6	102	.	.
CC(=O)N1CCOc2ccc(S(=O)(=O)NC3CCCCCC3)cc21	-22	106	89	87
O=C(NCCCc1ccccc1)N1c2ccccc2Sc2ccccc21	.	101	102	83
CCCCc1ccc(S(=O)(=O)Cc2nc(-c3ccc(OC)cc3)no2)cc1	-30	106	.	.
Oc1ccc(N2Cc3ccccc3C2)cc1	.	116	137	58
CC(NC(=O)CSc1nc2ccccc2c(=O)n1N)c1ccccc1 (stereo unspecified)	-8	104	111	98
Cc1nc2cc(-c3ccccc3)sc2c(=O)n1N	-10	94	96	113
O=C1c2ccccc2C(=O)N1CCCc1nc(-c2ccccc2)no1	10	101	119	99
COc1cccc(-c2nc3c(c(SCc4ccccc4Cl)n2)Cc2c(CO)cnc(C)c2O3)c1	.	106	111	88
O=C(CCSCc1cnn(-c2ccccc2)c1-n1cccc1)NCc1ccccc1F	-10	99	118	77
COc1ccc(CNC(=O)c2cc(C(C)(C)C)oc2C)cc1OC	1	112	113	93
CCOC(=O)C1CCN(c2ncnc3c2nnn3C)CC1	.	96	89	91
CCOCCCn1c(=N)c(C(=O)NC2CCCC2)cc2c(=O)n3cccc(C)c3nc21	-115	106	114	85
COc1ccc(CNC(=O)C(=O)NCC(c2cccs2)S(=O)(=O)c2ccc(F)cc2)cc1 (stereo unspecified)	.	96	134	89
O=C(O)C(c1ccccc1)N1C(=O)/C(=C/c2ccncc2)SC1=S (stereo unspecified)	.	80*	113	91

Overlap with the part before: 5 compounds, then new ones.
SMILES	HCMV UL50-53 inh	GIV-Gai inh	Sa growth inh	Sa growth inh second temp
COc1ccc(CNC(=O)c2cc(C(C)(C)C)oc2C)cc1OC	1	112	113	93
CCOC(=O)C1CCN(c2ncnc3c2nnn3C)CC1	.	96	89	91
CCOCCCn1c(=N)c(C(=O)NC2CCCC2)cc2c(=O)n3cccc(C)c3nc21	-115	106	114	85
COc1ccc(CNC(=O)C(=O)NCC(c2cccs2)S(=O)(=O)c2ccc(F)cc2)cc1 (stereo unspecified)	.	96	134	89
O=C(O)C(c1ccccc1)N1C(=O)/C(=C/c2ccncc2)SC1=S (stereo unspecified)	.	80*	113	91
CCOc1cc(CC(=O)N[C@@H](CC(C)C)c2ccccc2N2CCCCC2)ccc1C(=O)O	-49&2&-13	.	84&95	79&78
CCCNc1nc(OC(C(F)(F)F)C(F)(F)F)nc(N2CCNCC2)n1	-15	100	.	.
O=S(=O)(c1cc(F)ccc1F)N1CCCC1c1ccc(Cl)cc1 (stereo unspecified)	-13	104	.	.
COc1ccc2c(c1)NC(=O)CC(c1ccccc1)=N2	-46	.	100	89
Cc1ccc(NC(=O)NCCc2nc3cccnc3n2Cc2ccccc2)cc1C	-19	128	.	.
Cc1ccc(NCc2cccn2-c2nnc(N3CCC(C(=O)NCc4ccc(F)cc4)CC3)s2)cc1	-1	105	105	92
CCS(=O)(=O)c1ccc(-c2cccc(NS(=O)(=O)c3ccc(OC)cc3)c2)nn1	-48	101	.	.
O=C(CSc1nncn1-c1ccccc1)c1ccccc1	-7	.	99	87
CC(=O)Nc1cc(-n2cnnn2)ccc1C	-7	100	107	89
